Screening results (PubChem)
NPYLR7 agonist = mosquito NPYLR7 agonism | HEK293T NPYLR7/Galpha15, GCaMP6s calcium fluorescence | activation, % at 10 µM | 0.15% of 270,000 active | AID 1259423; in the data active = activation above about 40%;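 also: 0% = vehicle and 100% = reference agonist at the receptor; some compounds past the cut are filed as inactive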
NPYLR7 agonist max-min = further read-out of NPYLR7 agonist, marked with its call; activation, %; measured here: Max-Min RFU normalised activation; some inactives read as strong as hits;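 span of the calcium signal over five minutes; 0% = vehicle and 100% = native peptide agonist; compound fluorescence can raise it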
* = called active by the depositor. Only part of the results is shown; rates above refer to the full screens.

A first look, four compounds:
smiles	NPYLR7 agonist max-min	NPYLR7 agonist
CCOC(=O)C1C(=O)OC(C)(C)C1C(C(=O)c1ccc(Br)cc1)C(C)C (centres undefined)	-18	-11
Cc1ccc(C)c(Cc2c(C)nc(C)nc2N2CCN(C(=O)c3ccco3)CC2)c1	-1	-9
CN(Cc1cc2n(n1)CCNC2)Cc1nc2ccsc2c(=O)[nH]1	8	13
Cn1c(C(=O)N2CCCC(Nc3ccc4c(c3)OCCO4)C2)cc(=O)n(C)c1=O (centres undefined)	5	9

The list itself, previewed entries included:
smiles	NPYLR7 agonist max-min	NPYLR7 agonist
CCOC(=O)C1C(=O)OC(C)(C)C1C(C(=O)c1ccc(Br)cc1)C(C)C (centres undefined)	-18	-11
Cc1ccc(C)c(Cc2c(C)nc(C)nc2N2CCN(C(=O)c3ccco3)CC2)c1	-1	-9
CN(Cc1cc2n(n1)CCNC2)Cc1nc2ccsc2c(=O)[nH]1	8	13
Cn1c(C(=O)N2CCCC(Nc3ccc4c(c3)OCCO4)C2)cc(=O)n(C)c1=O (centres undefined)	5	9
CCc1ccc(-c2nccn2CCSc2nncn2C)o1	-4	-2
O=C(O)C1(N2CCCCC2)CCCCC1	2	2
CCCCNC(=O)C1CN(C(=O)Cc2ccccc2)CC1c1ccc(OC)cc1 (centres undefined)	3	5
CCOC(=O)c1nc2ccccc2nc1N1CCN(S(=O)(=O)c2ccc(CC)cc2)CC1	8	13
CN(CC(O)COc1ccccc1CN1CCCCO1)C1CCCCC1 (centres undefined)	8	8
COc1cccc(-c2nc(C(N)=O)c3[nH]c(=O)n(-c4ccc(C(C)(C)C)cc4)c3n2)c1	7	20
Cc1cc(C)n2nc(SCC(=O)Nc3ccc(C(C)C)cc3)nc2n1	-11	-4
O=S(=O)(NC1CCCN(Cc2ccccc2)C1)c1cccc(Cl)c1F (centres undefined)	11	10
CCOC(=O)c1nn(-c2ccccc2)cc1O	-7	-6
Cc1ccc(-n2ncc3c2CC(C)(C)CC3NC2CCSCC2)cc1 (centres undefined)	10	10
COc1c(Cl)cc(Cl)cc1C=Nc1cnn(C)c1C(=O)Nc1cccc(C(F)(F)F)c1	-8	-2
O=C1C(=NNC(=S)NC2CCCCC2)c2cccc3cccc1c23	-1	0
O=C(CCl)Nc1ncc(Cc2cc(C(F)(F)F)ccc2Cl)s1	10	2
CC(=O)Nc1ccc(-c2ccnc3c2CC(C)(C(=O)NCc2ccc(N(C)C)cc2)O3)cc1 (centres undefined)	-12	-9
CCN(CC)CCOC(=O)c1cc(Cl)c(N)cc1OC	-33	4
CC(C)CC1=NN2C(C1)c1ccccc1OC2c1ccc(Br)cc1 (centres undefined)	-4	0
O=C(Nc1ccc(N2CCCC2)c(C(=O)NC2CC2)c1)Nc1cccc2ccccc12	10	7
O=C(c1cn(Cc2ccc(F)cc2)nn1)N1[C@@H]2CC[C@H]1CC(O)C2 (some centres undefined)	-13	-6
Cn1c(Oc2cccc([N+](=O)[O-])c2Cl)cc(=O)n(C)c1=O	0	4
c1ccc(-c2cn3nc(NCC4CCCO4)sc3n2)cc1 (centres undefined)	-4	-4
CCc1nc2n(n1)C(=O)C(C(c1ccc(Cl)cc1)N1CCCCC1)S2 (centres undefined)	5	-1
Cc1[nH]c(-c2ccccc2)nc1C(=O)N1CCC(O)(CN(C)C)C1 (centres undefined)	1	3
Cc1n[nH]c(C)c1Cc1n[nH]c(=O)n1[C@H](C)c1ccc(F)cc1	-2	1
CC(C)C(NC(=O)CCSc1ccc(Cl)cc1)C(C)C	-8	-4
CC(C)CC(=O)N(CCN(C)C)Cc1c(-c2ccccc2)noc1N1CCc2ccccc2C1	6	1
O=S(=O)(Nc1ccccc1I)c1ccc(C(F)(F)F)cc1	-2	-2
COc1ccc(OC)c(N2C(=O)C3C4C=CC(C4)C3C2=O)c1 (centres undefined)	-16	-9
CC(C)CC(=O)Nc1nnc(C(C)(C)C)s1	8	10
COCCNC(=O)c1ccc(NC(=O)C(C)Oc2cc(C)ccc2C)cc1 (centres undefined)	-4	-3
C=Cc1ccc(CC2(C)C(=O)Nc3ccc(S(=O)(=O)NC4CCCCC4)cc32)cc1 (centres undefined)	3	3
CCc1nnc2n1N(C(C)=O)C(c1ccc(OC)cc1)=C(C(C)=O)S2	2	3
CCCC1COCCN1C(=O)COc1ncnc2ccccc12 (centres undefined)	-1	0
CCCCc1ccc(C(=O)N2CCN(C(=O)CN3CCc4sccc4C3c3ccccc3C)CC2)cc1 (centres undefined)	2	9
Cc1noc(C)c1CN1CCC(CNC(=O)C2(N)CCC2)C1 (centres undefined)	1	1
C=CC[C@@H]1CC=C[C@@H](C)N1C(=O)CC1(c2ccccc2Cl)CC(=O)N(C2CCCC2)C1=O (some centres undefined)	9	23
CC(C)(C)C#C/C=N\n1nnc(-c2ccccc2)n1	-15	-9
FC(F)(F)c1cccc(-n2c(-c3nccc4ccccc34)n[nH]c2=S)c1	-4	2
CCC(C(=O)N1CCN(c2cc(Oc3ccccc3C)ncn2)CC1C)c1ccccc1 (centres undefined)	-3	-6
CC(OC(=O)c1ncc(Cl)c(Cl)c1Cl)C(=O)NCc1ccccc1 (centres undefined)	0	1
CC1CCCC(NC(=O)c2cccn3c(=O)c4c5c(sc4nc23)CCCC5)C1C (centres undefined)	2	9
CCC(C(=O)N(Cc1cccc(Cl)c1)Cc1nc2cc(Cl)ccc2o1)c1ccccc1 (centres undefined)	3	6
Cc1noc(-c2ccncc2)c1C(=O)NCCSCc1ccco1	14	1
COc1ccccc1NC(=O)NCC1CCCN(Cc2cnc[nH]2)C1 (centres undefined)	0	2
O=C(c1cccc([N+](=O)[O-])c1)N1CCN(c2cc(Oc3ccc(F)c(Cl)c3)ncn2)CC1	8	1
COCCN(CCC(=O)NCCN1CCOCC1)c1nc(-c2ccco2)nc2cc(Cl)ccc12	15	15
CCOc1nc(-c2ccccc2F)n(-c2ccc(NC(=O)Cc3ccccc3)cc2)n1	26	12
CSc1nc2sc3c(c2c(=O)[nH]1)CC(C)(C)OC3	2	10
COc1ccc(S(=O)(=O)N2CCc3ccccc3C2)cc1N1CCN(C(=O)C(F)(F)C(F)F)CC1	-1	2
COC(=O)Cn1c(=NC(=O)c2ccccc2[N+](=O)[O-])sc2ccccc21	-2	1
Cc1cc(Oc2ccccc2C)nc(SCc2cccc(C(F)(F)F)c2)n1	27	24
CCn1c(C2CCCN(Cc3cnccc3C(F)(F)F)C2)n[nH]c1=O (centres undefined)	4	6
Cc1noc2ncc(NS(=O)(=O)c3ccc(Cl)nc3)cc12	9	12
Cc1ccc(NC(=O)N2CCC(C(NC(=O)c3ccc(F)cc3)C(=O)Nc3ccccc3)CC2)cc1 (centres undefined)	-2	-4
CCN(CC)CCCNS(=O)(=O)c1cccc2nsnc12	3	4
O=C1CSC2=NCN(CC3(N4CCCCC4)CCCCC3)CN12	-13	-9
Cc1cccc(-c2nnc(C(C)OC(=O)Cc3n[nH]c(=O)c4ccccc34)o2)c1 (centres undefined)	19	0

Pulled by structure from the list above (3):
smiles	NPYLR7 agonist max-min	NPYLR7 agonist
Cc1noc2ncc(NS(=O)(=O)c3ccc(Cl)nc3)cc12	9	12
CCN(CC)CCCNS(=O)(=O)c1cccc2nsnc12	3	4
COCCN(CCC(=O)NCCN1CCOCC1)c1nc(-c2ccco2)nc2cc(Cl)ccc12	15	15

Additional structures follow.
smiles	NPYLR7 agonist max-min	NPYLR7 agonist
CCc1nc2n(n1)C(=O)C(C(c1ccc(F)cc1)N1CCN(c3ccc(OC)cc3)CC1)S2 (centres undefined)	0	1
O=C(NC1CCC(NC(=O)[C@H]2CCCN2S(=O)(=O)c2cccc(C(F)(F)F)c2)CC1)c1ccccc1 (some centres undefined)	5	-2
Cc1cc(CN2CCN(CC(C#N)CCC#N)CC2)on1 (centres undefined)	5	4
O=C(O)CC1SC(=NN=C2c3ccccc3-c3ccccc32)NC1=O (centres undefined)	-16	-11
CCOC(=O)c1c(C)[nH]c(C(=O)NNC(=CC(=O)OC)C(=O)OC)c1C	5	4
O=C(Nc1cccc(-n2cccn2)c1)C1CCCN(Cc2cc3ccccc3o2)C1 (centres undefined)	22	21
Cc1cnc(CNCC(=O)Nc2cnccn2)cn1	3	2
Oc1ccccc1C1=NNC(c2ccc(Br)cc2)C1 (centres undefined)	9	5
CCn1c(C)ccc(C(=O)N2CCCC(N3CCc4ccccc4C3)C2)c1=O (centres undefined)	10	12
COc1cc(CC2(CCC(=O)N3CCC(c4ccccc4Cl)C3)CCC(=O)N2)ccc1F (centres undefined)	-2	10
Cc1cccc(CN2CCCC3(CCN(c4nc(C)cnc4C)C3)C2=O)c1 (centres undefined)	2	17
CC1CN(c2ccc(Oc3ccccc3)cc2)c2nc3c(c(=O)n(C)c(=O)n3C)n2C1 (centres undefined)	2	0
O=C(Cn1cnc([N+](=O)[O-])n1)N/N=C\c1ccccn1	-10	-8
CCn1cc(C(CC(=O)N2CCN(c3ccccc3F)CC2)c2cccc(C)c2)c2ccccc21 (centres undefined)	10	1
COc1ccc(CCNC(=O)Cn2cc(OC)c(=O)cc2CO)cc1OC	1	1
COc1cn(CC(=O)NCc2ccc(C)cc2)c(CN2CCN(c3ccc(F)cc3)CC2)cc1=O	-1	-1
COc1cc(CN2CCn3nc(C(=O)N4CCN(C/C=C/c5ccccc5)CC4)cc3C2=O)cc(OC)c1	-2	-6
CCOC(=O)CSc1nc2c(c(=O)n1-c1ccc(OCC)cc1)SCC2	-4	-3
Cc1c(F)cc(C(=O)NCC(F)(F)F)cc1NC(=O)CC(C)(C)C	2	12
CC(C)C(C)N(C1CC1)S(=O)(=O)c1ccc(OC(F)F)c(Cl)c1 (centres undefined)	15	17
COCC1CCCN(C(=O)c2cnc(SC)n2-c2ccccc2)C1 (centres undefined)	-16	0
Cc1cccc(-c2cc(N)n(-c3ccc(C(=O)N(CC(C)C)CC(C)C)cc3)n2)c1	-10	-4
Cn1ncc2cc3ccccc3nc21	19	2
CN(C)CCn1nnnc1SCC1=C(C(=O)O)N2C(=O)[C@@H](NC(=O)Cc3csc(N)n3)[C@H]2SC1	-11	-8
Cc1cc(C(=O)N(C)CCn2ccc3ccccc32)nc(C)n1	0	1
O=C(CSc1nc(=O)n(CCCN2CCOCC2)c2c1CCC2)N1CCCc2ccccc21	-7	-2
COc1ccc(C2CC(c3ccc(F)cc3)=NN2C(=O)CN2CCN(C(C)=O)CC2)c(OC)c1 (centres undefined)	15	10
O=C(Nc1cnc2n1CCCC2)c1csc(-c2cccs2)n1	5	15
CC1=C(C(=O)OCC(C)C)Sc2ccc(C(F)(F)F)cc2N1	2	2
CCn1c2ccccc2c2cc(-c3nccn3C(C)c3nncn3C)ccc21 (centres undefined)	8	9
N#Cc1c(N)nc(N2CCCCC2)c(C#N)c1C1(C#N)CCC1	2	1
Cc1nc2cc[nH]n2c(=O)c1CC(=O)N1CCc2ccc(Cl)cc21	1	5
O=C(CCS(=O)(=O)C1CCCC1)NS(=O)(=O)c1ccc(Cl)cc1F	19	1
CC1(C)Cc2c(c(-c3ccco3)nc3sc4c(N5CCOCC5)ncnc4c23)CO1	2	8
C=CCn1c(=NC(=O)c2ccccc2)sc2cccc(OC)c21	0	1
O=C(Cn1cnnn1)N1CCOC(COCc2ccccc2F)C1 (centres undefined)	31	19

Looked up above.
Cc1cc(C(=O)N(C)CCn2ccc3ccccc32)nc(C)n1 in NPYLR7 agonist = 1
CC1=C(C(=O)OCC(C)C)Sc2ccc(C(F)(F)F)cc2N1 in NPYLR7 agonist = 2
O=C(Nc1cnc2n1CCCC2)c1csc(-c2cccs2)n1 in NPYLR7 agonist = 15

Reformatted: entries from further up.
Fields – NPYLR7 agonist max-min, NPYLR7 agonist
CC1=C(C(=O)OCC(C)C)Sc2ccc(C(F)(F)F)cc2N1
 : 2, 2
CCn1c2ccccc2c2cc(-c3nccn3C(C)c3nncn3C)ccc21 (centres undefined)
 : 8, 9

The list continues:
smiles	NPYLR7 agonist max-min	NPYLR7 agonist
c1ccc(-c2nc[nH]c2-c2cccn2-c2ncccn2)cc1	2	4
Cc1ccc(-n2c(SCC(=O)N3CCN(C(=O)c4cc(C(F)(F)F)cc(C(F)(F)F)c4)C(C)C3)nnc2-c2ccco2)cc1 (centres undefined)	3	-3
CC(NC(=O)NCC(C)(C)O)c1nc(C2CCCCC2)no1 (centres undefined)	9	7
Cc1ccccc1CN(C)Cn1nc(C)n(-c2ccccc2C)c1=S	1	8
CN(C)c1cc(C(F)(F)F)nc(N2CCCCC2c2cn[nH]c2)n1 (centres undefined)	-4	-4
CCOC(=O)c1ccc2c(c1)nc(SCc1ccc(Cl)c(C(F)(F)F)c1)n2CCc1ccc(OC)cc1	19	29
COc1ccc(-c2csc(=Nc3cc(OC)cc(OC)c3)n2CCc2cccs2)cc1	-8	-4
O=C(c1ccc(CSc2ccccn2)cc1)N1C2CCC1CC(Oc1ccc(F)cc1F)C2 (centres undefined)	9	0
CCn1c(C(Cl)=Cc2ccccc2)nc2cc(S(=O)(=O)N3CCOCC3)ccc21	35	-2
O=C(CC1(c2ccccc2Cl)CC(=O)N(C2CCCC2)C1=O)N1CCC(c2ccncc2)CC1 (centres undefined)	-1	3
